# VDR inh: inhibitors of human vitamin D receptor | Potency, µM, for the others: max response, negative = inhibition, hits mostly inhibitors | P11473 | VDR-SRC2-3 peptide fluorescence polarization, 2 h | 400,000 compounds, 0.93% hits; active = well fitted inhibition curve with a large enough effect; inconclusive = small, poorly fitted or top-dose-only effect, or another doubt; inactive = no such curve, though single readings can be large or run the other way; note: series mostly up to about 120 µM
# Target sequence (P11473 whole entry, looked up): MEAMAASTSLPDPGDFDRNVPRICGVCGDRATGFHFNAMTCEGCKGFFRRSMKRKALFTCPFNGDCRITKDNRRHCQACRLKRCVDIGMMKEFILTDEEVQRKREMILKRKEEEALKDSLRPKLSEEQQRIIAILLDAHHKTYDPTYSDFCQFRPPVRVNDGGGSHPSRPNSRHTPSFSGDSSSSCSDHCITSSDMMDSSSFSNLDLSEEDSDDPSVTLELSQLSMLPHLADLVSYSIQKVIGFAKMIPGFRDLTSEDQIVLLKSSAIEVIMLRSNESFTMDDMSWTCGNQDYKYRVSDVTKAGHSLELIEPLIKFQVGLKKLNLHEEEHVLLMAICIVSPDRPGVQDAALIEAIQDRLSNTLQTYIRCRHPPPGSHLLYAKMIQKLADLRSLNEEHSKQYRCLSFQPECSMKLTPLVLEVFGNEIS
#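 VDR–SRC2-3 interaction, FP format. Cmpds 23 nl via pintool, brief spin, 2 h ambient incubation.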
# Starred values were filed as active, the others as inactive; ? = inconclusive; & = joins results of further samples. % is set by controls: 0 for no effect and ±100 for the full control effect; potency is the fitted concentration of half-maximal effect.
O=C(COc1ccc(S(=O)(=O)N2CCOCC2)cc1)NC1CCCCC1
  VDR inh = -2%
CCOc1ccc(NC(=O)COc2cccc3c2CCN(Cc2cccnc2)C3=O)cc1
  VDR inh = 5%
COc1ccc(CCNC2CCN(C)CC2)cc1OC
  VDR inh = 6%
Cc1cccnc1NC(=S)Nc1ncccc1C
  VDR inh = 7%
Clc1cc(Br)ccc1OCCN1CCOCC1
  VDR inh = 3%
CCN(CC)C(=O)CSc1nc2c(sc(=S)n2-c2ccccc2)c(=O)n1-c1ccccc1OC
  VDR inh = 7%
CC(=O)NC(Cc1ccc(F)cc1)C(=O)NC1CCN(C(=O)Nc2cccc(C)c2)CC1 (configuration not stated)
  VDR inh = 4%
CCOC(=O)C1(CCc2ccccc2)CCN(C2Cc3ccccc3C2)CC1
  VDR inh = -4%
COc1cccc(CNC(=O)c2ccc3c(c2)N(C)CCS3)c1OC
  VDR inh = -4%
Clc1ccc(C2Nc3cccc4cccc(c34)N2)cc1Cl
  VDR inh = -21%

CC1=C(C(=O)NC2CCCC(C)C2C)C2(CCCCC2)OC1=O (configuration not stated)
  VDR inh = -8%
CCOC(=O)C1=C(C)NC(C)=C(C(=O)OCC)C1C(=O)OCC(=O)NC
  VDR inh = -14%
Cc1nc(N2CCOCC2)c2c(C)c(C(=O)Nc3ccc(F)cc3Cl)sc2n1
  VDR inh = -23%
CCOc1ccccc1N=NC1C(=O)N(C(N)=S)N=C1C (configuration not stated)
  VDR inh = -12%
Cc1ccc(F)cc1CNC(=O)C1CCC(=O)N(CCc2ccccc2)C1 (configuration not stated)
  VDR inh = 1%
CC1C/C(=N\NC(=O)c2ccc([N+](=O)[O-])cc2)CC(C)(C)C1 (configuration not stated)
  VDR inh = -5%
COc1ccc(Cl)cc1NC(=O)c1c(-c2ccccc2)noc1C
  VDR inh = -7%
CC(C)CC(=O)N1CCN(Cc2ccccc2[N+](=O)[O-])CC1
  VDR inh = -18%
CCC1=NC(c2ccccc2)N(O)C1(C)C (configuration not stated)
  VDR inh = -2%
Cc1ccnc(NS(=O)(=O)c2ccc(NS(=O)(=O)c3cc(Cl)ccc3Cl)cc2)n1
  VDR inh = -3%

# Of the compounds above, two contain two or more sulfur atoms.
CCN(CC)C(=O)CSc1nc2c(sc(=S)n2-c2ccccc2)c(=O)n1-c1ccccc1OC
  VDR inh = 7%
Cc1ccnc(NS(=O)(=O)c2ccc(NS(=O)(=O)c3cc(Cl)ccc3Cl)cc2)n1
  VDR inh = -3%

# New compounds follow:
CCOC(=O)C1CCN(C(=O)c2cc3cc(F)ccc3[nH]2)CC1
  VDR inh = -16%
COC(=O)[C@]1(C)CCC[C@]2(C)c3ccc(C(C)C)cc3C(=O)CC12 (some centres not stated)
  VDR inh = ?
COc1ccc(NS(=O)(=O)c2cccc(C(=O)NN=Cc3ccc(O)c(OC)c3)c2)cc1
  VDR inh = -11%
Cc1cc(NN)nc2ccc(Cl)cc12
  VDR inh = 11%
CCOCCn1ccc2c(OCC(=O)Nc3cc(C(F)(F)F)ccc3Cl)cccc2c1=O
  VDR inh = -5%
COC(=O)CSc1ccccc1C(=O)OC
  VDR inh = -5%
O=C(NCC1CCCO1)C1CCCCN1S(=O)(=O)c1ccc(F)cc1 (configuration not stated)
  VDR inh = -17%
Cc1ccsc1/C=C/C1=Cc2c(sc(NC(=O)CSc3n[nH]c(N)n3)c2C#N)C(C)(C)C1
  VDR inh = 6%
CN(C(=O)C12CC3CC(CC(C3)C1)C2)C1(C)CCS(=O)(=O)C1 (configuration not stated)
  VDR inh = 4%
CC(C)(/C=N/O)/[N+]([O-])=C/C=[N+](\[O-])C(C)(C)/C=N/O
  VDR inh = 6%

Cc1ccc(C(=O)N2CCN(Cc3ccc4c(c3)OCO4)CC2)o1
  VDR inh = -2%
COc1cccc(Cn2c(=O)cnc3cnc(Oc4cccc(Cl)c4)nc32)c1
  VDR inh = -20%
CCOC(=O)C1=C(COC(=O)C2CC(=O)N(CCc3ccccc3)C2)NC(=O)NC1C (configuration not stated)
  VDR inh = 0%
CCOC(=O)c1[nH]c2c(c1-c1ccccc1)C(=O)CC(c1ccc(Cl)cc1)C2 (configuration not stated)
  VDR inh = -7%
CC1(C)CCc2nc(SCc3ccccc3)c(C#N)cc2C1
  VDR inh = 0%
COc1cc(C(=O)Nc2ccc(S(=O)(=O)Nc3cc(C)on3)cc2)cc(OC)c1OC
  VDR inh = -3%
COC(=O)c1ccc(NC2=C(Cl)C(=O)OC2OC(=O)c2ccccc2)cc1 (configuration not stated)
  VDR inh = 16%
CC(C)(C)OC(=O)NCCCC[C@H](NC(=O)c1nc[nH]c1C(=O)NCc1ccccc1)C(=O)OC(C)(C)C
  VDR inh = -16%
Cc1ccc(-c2nnc(N(C)C(=O)c3ccccn3)s2)cn1
  VDR inh = -6%
CCN(CC(=O)Nc1c(F)cccc1F)C(=O)/C=C/c1c(C)nn(-c2ccc(F)cc2)c1C
  VDR inh = -11%

CNC(=S)NNC(=O)c1cc(C(C)(C)C)nn1Cc1ccc(F)cc1
  VDR inh = 5%
CCOC(=O)C1=C(COC(=O)CNC(=O)c2ccccc2F)NC(=O)NC1C (configuration not stated)
  VDR inh = -1%
COc1ccc(-c2cc(CCCC(=O)NCCc3ccc(OC)cc3OC)no2)cc1
  VDR inh = 8%
Cc1cc(SCc2cccc(C(F)(F)F)c2)nc(=O)[nH]1
  VDR inh = 0%
N#Cc1cc2cc3c(cc2nc1SCC(=O)N1CCOCC1)OCCO3
  VDR inh = -3%
Cc1cc(Br)c2nc3c(c(C(=O)O)c2c1)CCCCC3
  VDR inh = 10%
CCCCOCCCNC(=O)c1ccc(OC)cc1
  VDR inh = -13%
CC1=CC(C)(C)N(C(=O)CSc2nncn2C)c2ccccc21
  VDR inh = 1%
Cn1c(=O)oc2cc(S(=O)(=O)N3CCCc4ccccc43)ccc21
  VDR inh = -3%
C=CCn1c(=O)n(CCC#N)c(=O)n(CCC#N)c1=O
  VDR inh = 4%

O=C(NCC1CCNCC1)c1ccncc1
  VDR inh = -8%
COc1ccc2cnnc(SCC(=O)Nc3ccccc3)c2c1OC
  VDR inh = -8%
NC(=O)c1ccc(NC(=O)COC(=O)/C=C/c2ccc(Br)o2)cc1
  VDR inh = 2%
CN(Cc1ccccc1)S(=O)(=O)c1ccc2c(c1)OCCO2
  VDR inh = -4%
CCOCCCNC(=O)C(=O)NCCCOCC
  VDR inh = -1%
COc1ccc(-c2ccc(CCC(=O)O)n2-c2ccccc2C(F)(F)F)cc1
  VDR inh = -26%
CN(C(=O)c1cccc(NC(=O)Cc2ccc(NC(=O)C3CCN(S(=O)(=O)c4cccc([N+](=O)[O-])c4)CC3)cc2)c1)C1CCCC1
  VDR inh = -20%
COc1cc(C(c2c(O)cc(C)[nH]c2=O)c2c(O)cc(C)[nH]c2=O)ccc1O
  VDR inh = ?
O=C(N1CCN(c2ncccn2)CC1)C12CC3CC(CC(C3)C1)C2
  VDR inh = -5%
O=C(c1ccc2nc[nH]c2c1)N1CCN(S(=O)(=O)c2cccc(Cl)c2)CC1
  VDR inh = -11%

CSCC[C@H](NC(=O)[C@@H]1CSC2c3ccccc3C(=O)N21)C(=O)N1CCC[C@H]1CO (some centres not stated)
  VDR inh = -13%
COC(=O)[C@H](CCSC)NC(=O)NC1CCN(Cc2ccccc2)CC1
  VDR inh = 9%
COc1ccc(OC)c(/C=C/C(=O)Nc2ccc3c(c2)CCC3)c1
  VDR inh = -6%
O=C(CSc1nc2ccccc2o1)Nc1nc(-c2ccccc2)c(-c2ccccc2)s1
  VDR inh = -4%
CC(N=Cc1cc([N+](=O)[O-])ccc1O)c1ccccc1 (configuration not stated)
  VDR inh = -3%
Cc1ccc(C2C(C(N)=S)=C(N)OC3=C2C(=O)CC(C)(C)C3)cc1 (configuration not stated)
  VDR inh = ?
C=C(C)Cn1c(CCCNC(=O)CCC)nc2ccccc21
  VDR inh = 1%
O=C(/C=C/c1ccc(Br)o1)OCc1nc2ccsc2c(=O)[nH]1
  VDR inh = 3%
CCCN(C(=O)COc1ccc(C(C)=O)cc1OC)C1CCS(=O)(=O)C1 (configuration not stated)
  VDR inh = 6%
Cc1[nH]nc2c1C1(CCOCC1)C(C#N)=C(N)O2
  VDR inh = 3%

O=C(CCc1c[nH]c2ccccc12)NCC(=O)Nc1ccc(F)c(F)c1F
  VDR inh = -8%
Cc1sc2ncnc(SCC(=O)c3ccc4c(c3)OCCO4)c2c1-c1ccccc1
  VDR inh = 7%
Nc1ccc(S(=O)(=O)Nc2nccc(/C=C/c3ccc(Br)s3)n2)cc1
  VDR inh = ?
CCCCNC(=S)Nc1ccc(OC)nc1
  VDR inh = -17%
O=C(Cn1nc(-c2ccccc2)ccc1=O)NCc1ccc(F)cc1
  VDR inh = -20%
Cc1ccc(-c2cc(NC(=O)COc3ccc(Cl)c(C)c3)on2)cc1
  VDR inh = 9%
C[C@@]12C(=O)N(Cc3ccc(Cl)cc3)CC(=O)N1[C@H]1c3ccccc3OC[C@@H]1[C@@H]2c1ccccc1
  VDR inh = -4%
Cc1ccc(CNC(=O)C2CCC(=O)N2Cc2ccc(F)cc2)cc1 (configuration not stated)
  VDR inh = 0%
CC(C)C[C@H](NC(=O)[C@@H](Cc1ccccc1)n1c(=O)[nH]c2ccccc2c1=O)C(=O)N[C@@H](Cc1ccccc1)C(=O)O
  VDR inh = -21%
CCOc1ccc(OCCCCNC(C)(C)C)cc1
  VDR inh = 2%

CSc1ccccc1C(=O)Nc1ccccc1C(=O)NC(C)C
  VDR inh = 79µM*
CC(NC(=O)CNC(=O)C1O[C@@H]2OC(C)(C)O[C@@H]2[C@H]2OC(C)(C)O[C@@H]12)C(=O)O (some centres not stated)
  VDR inh = -13%
O=C(Nc1ccc(S(=O)(=O)Nc2nccs2)cc1)/C(=C/c1ccccc1Cl)NC(=O)c1ccccc1
  VDR inh = 3%
Cc1onc(-c2ccccc2)c1CNS(=O)(=O)c1cccc(Cl)c1
  VDR inh = 0%
CCOC(=O)N/N=C\c1ccccc1OC/C=C/c1ccccc1
  VDR inh = -3%
O=S(=O)(c1cccc2nsnc12)N1CCN(Cc2ccccc2)CC1
  VDR inh = -12%
N#CCN1CCC2(O)CCCCC2C1c1ccc2c(c1)OCO2 (configuration not stated)
  VDR inh = 9%
Cn1c(=O)[nH]c(=O)c2c1nc(NCCCn1ccnc1)n2Cc1ccc(F)cc1
  VDR inh = 5%
C=CCc1cccc2cc(C(=O)Nc3ccc(S(=O)(=O)Nc4nnc(CC)s4)cc3)c(=O)oc12
  VDR inh = -17%
Cc1ncsc1CCC(=O)N1CCCC(C(=O)c2ccc3c(c2)OCO3)C1 (configuration not stated)
  VDR inh = 0%

CCc1occc(=O)c1Oc1cc(NN2CCCCC2)c([N+](=O)[O-])cc1[N+](=O)[O-]
  VDR inh = 10%
Cc1nn(C)c(C(=O)N/N=C/c2ccccc2)c1[N+](=O)[O-]
  VDR inh = -15%
Cc1cc(-c2ccc(S(=O)(=O)NCc3ccccc3Cl)s2)on1
  VDR inh = -5%
CC1CCCC(C)N1C(=O)CNCc1ccc2c(c1)OCO2 (configuration not stated)
  VDR inh = -22%
CCC(C(=O)NCc1ccco1)N(C(=O)CNS(=O)(=O)c1ccccc1)c1ccccc1C (configuration not stated)
  VDR inh = 13%
COc1cc2c(cc1OC)C(c1ccc(Br)cc1)NC(=O)C2 (configuration not stated)
  VDR inh = -18%
COc1cccc(CNS(=O)(=O)c2cc3c4c(c2)CCN4C(=O)CC3)c1
  VDR inh = -5%
N/C(Cn1cncn1)=N\NC(=O)c1ccc(Cl)cc1Cl
  VDR inh = -5%
CCCn1c(=O)c(C(=O)NCCCc2ccccc2)c(O)c2ccccc21
  VDR inh = 4%
NNC(=O)c1cnn(-c2ccccc2)c1C(F)(F)F
  VDR inh = 0%

# In another format: results already given
Structure	VDR inh
CC1CCCC(C)N1C(=O)CNCc1ccc2c(c1)OCO2 (configuration not stated)	-22%
N/C(Cn1cncn1)=N\NC(=O)c1ccc(Cl)cc1Cl	-5%

# (next part)
CC(=O)Nc1cccc2c1C(=O)N(c1cccc(C)c1)C2=O
  VDR inh = 5%
O=C(c1cc(-c2ccc(Cl)cc2)on1)N1CCCC1
  VDR inh = -9%
CC(=O)c1cccc(CN2CCCC(CCC(=O)NCc3ccc(C)o3)C2)c1 (configuration not stated)
  VDR inh = -12%
S=c1[nH]nc(COc2ccccc2)n1/N=C/c1ccc(Br)cc1
  VDR inh = -21%
CN(C)C(CNC(=O)c1cccc(S(=O)(=O)NCc2ccccc2)c1)c1ccccc1 (configuration not stated)
  VDR inh = -6%
COc1cnc(-c2ccccn2)nc1Sc1ccccc1
  VDR inh = -5%
CC(C)CN1C(=O)NC(NC(=O)c2ccco2)(C(F)(F)F)C1=O (configuration not stated)
  VDR inh = 5%
C=CCN1C(=O)C(O)(CC(=O)c2c(C)n[nH]c2C)c2cc(Br)ccc21 (configuration not stated)
  VDR inh = -8%
FC(F)(Cl)c1nnc2ccc(Cl)nn12
  VDR inh = 0%
O=c1[nH]c(=O)c2nnc(N/N=C\c3ccc(O)cc3)nc2[nH]1
  VDR inh = -11%

COc1ccc(C2/C=C\CN(Cc3ccco3)CC(=O)N2Cc2ccc(F)cc2)cc1 (configuration not stated)
  VDR inh = -17%&8%
CN(C)S(=O)(=O)c1ccc(=S)[nH]c1
  VDR inh = -8%
O=C(Nc1ccc([N+](=O)[O-])cc1)Nn1cnnc1
  VDR inh = 1%
COc1ccc(OC)c(NC(=O)c2sc3nc(C)cc(C)c3c2N)c1
  VDR inh = 14%
Cc1cc(C(=O)NCc2cccs2)no1
  VDR inh = -14%
COc1cc(C(=O)Oc2cccc(/C=N/NC(=O)c3cccnc3)c2)cc(OC)c1OC
  VDR inh = 1%
CC#CCN1c2ccccc2[C@]23C[C@@H](C(=O)OC)N(C(=O)NCCBr)C2=NC(C(=O)OC)=C(C(=O)OC)[C@H]13
  VDR inh = 1%
CC(C)CC(NC(=O)C1CCC(C)CC1)C(=O)N1CCN(c2ccccn2)CC1 (configuration not stated)
  VDR inh = -15%
CCC(=O)N1CCCc2cc(S(=O)(=O)N3CCN(c4ccccc4F)CC3)ccc21
  VDR inh = -14%

# High-throughput results deposited in PubChem BioAssay by National Center for Advancing Translational Sciences (NCATS).

# These rows are one share of the data, so the mix of outcomes need not match the whole.
